Assay outcomes (PubChem BioAssay)
OX1R antag-1: antagonists of human orexin 1 receptor | 0.43% of 330,000 active | O43613 | CHO/OX1R cells, Fluo-8 calcium fluorescence, orexin A | inhibition, % at 5 µM | AID 434989;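 active means inhibition above its plate's threshold, mean inhibition of all tested compounds on the plate plus 3 SD, cut at about 37% in these data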;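 further: 0% = orexin A challenge wells and 100% = SB-334867-A antagonist wells; not every result past the cut was called active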
Target sequence (O43613 whole entry, looked up): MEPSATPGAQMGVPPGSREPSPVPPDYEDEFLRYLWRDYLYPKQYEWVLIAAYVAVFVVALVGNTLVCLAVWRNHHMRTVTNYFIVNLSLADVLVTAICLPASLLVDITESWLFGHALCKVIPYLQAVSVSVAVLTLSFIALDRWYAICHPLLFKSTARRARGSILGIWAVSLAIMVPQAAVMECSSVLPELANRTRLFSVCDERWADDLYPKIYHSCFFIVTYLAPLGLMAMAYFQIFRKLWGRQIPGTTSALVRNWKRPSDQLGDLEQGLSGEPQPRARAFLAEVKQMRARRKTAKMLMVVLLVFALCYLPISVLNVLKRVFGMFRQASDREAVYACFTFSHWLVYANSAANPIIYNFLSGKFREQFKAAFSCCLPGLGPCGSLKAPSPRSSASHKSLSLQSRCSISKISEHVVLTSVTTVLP
OX1R antag-2: OX1R (human) antagonism | OX1R-expressing cells, FRET antagonist read-out | inhibition, % at 6.6 µM | AID 485270 | O43613 | 1.8% of 330,000 active; in the data active means inhibition mostly above about 38%, no sharp cut-off; inactive means mostly below about 40%;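 further: 0% = agonist challenge alone and 100% = reference antagonist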
* = called active by the depositor. Not all compounds are listed, and most or all hits are left out here.

The first seven compounds, ahead of the listing:
Screening CCOc1ccc(S(=O)(=O)Nc2c(C)n(C)n(-c3ccccc3)c2=O)cc1 returned OX1R antag-1 -25 and OX1R antag-2 -7.
CCN(C(=O)c1cnc2scc(C)n2c1=O)c1ccccc1C was read as OX1R antag-1 -9 and OX1R antag-2 -2.
Screening COC(=O)C1=C(C)OC(N)=C(C#N)C1c1cc2cc(C)ccc2nc1Cl (stereo not given) returned OX1R antag-1 -6 and OX1R antag-2 7.
For COc1ccc(NC(=O)CSc2nc(O)cc(=O)[nH]2)c(OC)c1 the results were OX1R antag-1 -14 and OX1R antag-2 9.
Screening CNS(=O)(=O)c1cccc(C(=O)OCC(=O)N(CCC#N)c2ccccc2)c1 returned OX1R antag-1 15 and OX1R antag-2 6.
Screening Cc1nnc(SCC2=C(C(=O)O)N3C(=O)C(NC(=O)Cn4nc(C(F)F)cc4C)C3SC2)s1 (stereo not given) returned OX1R antag-1 14 and OX1R antag-2 6.
Screening COc1ccc(S(=O)(=O)N2CCN(C)CC2)cc1Br returned OX1R antag-1 -15 and OX1R antag-2 15.

The whole of this part, from the first entry:
Screening CCOc1ccc(S(=O)(=O)Nc2c(C)n(C)n(-c3ccccc3)c2=O)cc1 returned OX1R antag-1 -25 and OX1R antag-2 -7.
CCN(C(=O)c1cnc2scc(C)n2c1=O)c1ccccc1C was read as OX1R antag-1 -9 and OX1R antag-2 -2.
Screening COC(=O)C1=C(C)OC(N)=C(C#N)C1c1cc2cc(C)ccc2nc1Cl (stereo not given) returned OX1R antag-1 -6 and OX1R antag-2 7.
For COc1ccc(NC(=O)CSc2nc(O)cc(=O)[nH]2)c(OC)c1 the results were OX1R antag-1 -14 and OX1R antag-2 9.
Screening CNS(=O)(=O)c1cccc(C(=O)OCC(=O)N(CCC#N)c2ccccc2)c1 returned OX1R antag-1 15 and OX1R antag-2 6.
Screening Cc1nnc(SCC2=C(C(=O)O)N3C(=O)C(NC(=O)Cn4nc(C(F)F)cc4C)C3SC2)s1 (stereo not given) returned OX1R antag-1 14 and OX1R antag-2 6.
Screening COc1ccc(S(=O)(=O)N2CCN(C)CC2)cc1Br returned OX1R antag-1 -15 and OX1R antag-2 15.
`COc1cc(C(=O)NCc2cccc3ccccc23)ccc1OCc1ccccc1` gave OX1R antag-1 -28 and OX1R antag-2 9.
For CCOC(=O)c1cc(NC(=O)c2ccccc2)c(=O)oc1-c1ccccc1 the results were OX1R antag-1 -28 and OX1R antag-2 18.
CC(C)Sc1nnc([C@H](Cc2ccccc2)NC(=O)OC(C)(C)C)o1 was read as OX1R antag-1 -21 and OX1R antag-2 3.
Screening CC(CN1CCOCC1)c1ccccc1 (stereo not given) returned OX1R antag-1 -2 and OX1R antag-2 5.
`O=C(Cc1ccc(-n2c(=O)[nH]c3ccsc3c2=O)cc1)NCc1cccnc1` gave OX1R antag-1 -38 and OX1R antag-2 7.
For COn1c(=O)c(-c2ccc(F)cc2)[n+]([O-])c2ccccc21 the results were OX1R antag-1 -19 and OX1R antag-2 22.
Screening Cc1ccc(CN2CC(C(=O)N(C)CC(=O)Nc3cccc(F)c3)CC2=O)cc1 (stereo not given) returned OX1R antag-1 -4 and OX1R antag-2 15.
`C/C(CC(=O)Nc1c(C)cc(C)cc1C)=N\NC(=O)OC(C)(C)C` gave OX1R antag-1 -9 and OX1R antag-2 9.
`Cc1nc(CS(=O)(=O)c2ccccn2)sc1C(=O)NNC(=O)c1ccccc1` gave OX1R antag-1 -23 and OX1R antag-2 6.
CC(NC(=O)CCCc1ccccc1)c1ccncc1 (stereo not given) was read as OX1R antag-1 -14 and OX1R antag-2 3.
Cc1nnc(SCC(=O)NNC(=O)c2ccccc2)n1-c1ccccc1 was read as OX1R antag-1 -9 and OX1R antag-2 16.
For COc1ccc(/C=C2/SC(=S)N(c3ccc(S(=O)(=O)Nc4nccs4)cc3)C2=O)cc1 the results were OX1R antag-1 30 and OX1R antag-2 27.
`CC(Oc1ccc(C#N)cc1)C(=O)c1ccc(F)c(F)c1` (stereo not given) gave OX1R antag-1 -5 and OX1R antag-2 4.
`Cc1cccc(NC(=S)NC2CC3CCC(C2)N3Cc2ccco2)c1` (stereo not given) gave OX1R antag-1 -17 and OX1R antag-2 7.
Screening c1ccc(C(CN2CCOCC2)c2ccccc2)cc1 returned OX1R antag-1 -11 and OX1R antag-2 1.
For COc1ccccc1/C=C1\SC(=O)N(CCC(=O)N(C)C2CCS(=O)(=O)C2)C1=O (stereo not given) the results were OX1R antag-1 -24 and OX1R antag-2 17.
`CCc1ccc(CC(=S)N2CCOCC2)cc1` gave OX1R antag-1 -6 and OX1R antag-2 9.
`CO/N=C/NC(=O)c1c(OC)ccnc1Oc1ccccc1` gave OX1R antag-1 -5 and OX1R antag-2 6.
`CCCC(=O)NC(c1ccc2c(c1)OCO2)c1cc(Cl)c2cccnc2c1O` (stereo not given) gave OX1R antag-1 -18 and OX1R antag-2 14.
For c1ccc(-c2ccc(CN3C[C@@H]4C(c5ccccc5)C5(c6cccnc6)CC4(C5)[C@H]3c3ccccc3)cc2)cc1 (stereo not given in full) the results were OX1R antag-1 -64 and OX1R antag-2 17.
Cc1c(N=C2C(=O)Nc3ccccc32)c(=O)n(-c2ccccc2)n1C was read as OX1R antag-1 3 and OX1R antag-2 22.
For O=C(Cc1ccc(NC2=NC3CS(=O)(=O)CC3S2)cc1)NCCc1ccccc1 (stereo not given) the results were OX1R antag-1 7 and OX1R antag-2 0.
For COc1ccc(NC(=O)CSc2nc3ccccc3nc2N2CCCCC2)cc1 the results were OX1R antag-1 -23 and OX1R antag-2 3.
Screening CC(=O)Oc1ccc2occ(C(=O)c3cccs3)c2c1 returned OX1R antag-1 -10 and OX1R antag-2 17.
CCNS(=O)(=O)c1ccc(CCC(=O)N2CCN(c3cccc(Cl)c3)CC2)cc1 was read as OX1R antag-1 -24 and OX1R antag-2 13.
`Fc1ccc(Cn2nnnc2CN2CCc3ccccc3C2)cc1` gave OX1R antag-1 9 and OX1R antag-2 21.
For COc1cc(NC(=O)c2ccc(C)cc2)c(OC)cc1NC(=O)CN1CCCCC1 the results were OX1R antag-1 -14 and OX1R antag-2 13.
Screening COCCCN1C(=O)C(=O)/C(=C(/O)c2ccc(S(=O)(=O)N3CCOCC3)cc2)C1c1ccc(C)cc1 (stereo not given) returned OX1R antag-1 5 and OX1R antag-2 7.
Cc1ccc(CN2CC(C(=O)N3CCN(S(=O)(=O)c4cc(C)ccc4C)CC3)CC2=O)cc1 (stereo not given) was read as OX1R antag-1 -29 and OX1R antag-2 16.
Screening Cc1cccc(-n2cnc(C(=O)N/N=C/c3ccccc3)c2)n1 returned OX1R antag-1 -5 and OX1R antag-2 31.
Screening CCOc1ccc(NC(=O)CC2C(=O)N(c3ccc(OC)cc3)C(=S)N2Cc2ccccn2)cc1 (stereo not given) returned OX1R antag-1 -22 and OX1R antag-2 13.
Screening C/C(=N\NC(=O)c1cccc([N+](=O)[O-])c1)c1ccncc1 returned OX1R antag-1 -10 and OX1R antag-2 30.
`Cc1nc(Cc2nnc(SCC(=O)N(C)c3ccccc3)o2)cs1` gave OX1R antag-1 -22 and OX1R antag-2 9.
Screening Cc1nn(C(=O)c2ccc3c(c2)OCO3)c(N)c1-c1ccccc1 returned OX1R antag-1 -8 and OX1R antag-2 10.
For COc1ccc(C(=O)Nc2ccc(NC(=O)c3cccs3)cc2)cc1Cl the results were OX1R antag-1 2 and OX1R antag-2 6.
Screening O=C(O)c1ccccc1-c1nnc2c(Cl)cc(C(F)(F)F)cn12 returned OX1R antag-1 -4 and OX1R antag-2 11.
Screening CCOC(=O)Cc1csc(NC(=O)CSC2=NCCS2)n1 returned OX1R antag-1 -3 and OX1R antag-2 10.
For COc1ccc(C(=O)CC(Nc2ccc([N+](=O)[O-])cc2)c2ccc(OC)cc2)cc1 (stereo not given) the results were OX1R antag-1 12 and OX1R antag-2 13.
For O=C(CCCOc1ccc(Cl)cc1Cl)NN1CCOCC1 the results were OX1R antag-1 2 and OX1R antag-2 12.
Screening Cc1ccc(S(=O)(=O)NNC(=O)c2cc3cc4ccccc4nc3s2)cc1 returned OX1R antag-1 -34 and OX1R antag-2 35.
Screening CC(C)(C)c1ccc(C(=O)NCCN2CCOCC2)cc1 returned OX1R antag-1 -1 and OX1R antag-2 9.
CCOC(=O)c1c(N)c(C#N)cn1-c1ccccc1 was read as OX1R antag-1 0 and OX1R antag-2 11.
For Cc1ccc2ccc(S(=O)(=O)NCc3ccccn3)cc2c1 the results were OX1R antag-1 -13 and OX1R antag-2 19.
Screening Cc1cc(OC(C)C(=O)NCc2cccnc2)c2c(C)c(Cc3ccccc3)c(=O)oc2c1 (stereo not given) returned OX1R antag-1 -33 and OX1R antag-2 22.
`O=C(O)CC(c1cccc([N+](=O)[O-])c1)N1Cc2ccccc2C1=O` (stereo not given) gave OX1R antag-1 4 and OX1R antag-2 24.
For COc1ccc(Nc2cc3n(c(=O)n2)CCc2cc(OC)c(OC)cc2-3)cc1 the results were OX1R antag-1 11 and OX1R antag-2 2.
C/C(=C\C(=O)OCC(=O)NCc1ccccc1)C(=O)OCC(=O)NCc1ccccc1 was read as OX1R antag-1 -20 and OX1R antag-2 21.
Screening CCOC(=O)Cc1nnc(Nc2cccc(O)c2)c2ccccc12 returned OX1R antag-1 -6 and OX1R antag-2 20.
Screening CCOC(=O)N1CCN(C(=O)CS(=O)(=O)c2cn(Cc3ccc(Cl)cc3)c3ccccc23)CC1 returned OX1R antag-1 -20 and OX1R antag-2 29.
For COC(=O)c1sccc1NC(=O)c1ccc2c(c1)OCO2 the results were OX1R antag-1 -8 and OX1R antag-2 25.
For Cc1cc(C)n2nc(C(=O)Nc3cccc(S(=O)(=O)N4CCCC4)c3)nc2n1 the results were OX1R antag-1 -25 and OX1R antag-2 14.
Screening CN(C(=S)Oc1ccc(C(=O)Nc2ccccc2)cc1)c1ccccc1 returned OX1R antag-1 -12 and OX1R antag-2 44.
Screening COc1cc(C(=O)NC(=S)Nc2ccc3oc(=O)ccc3c2)cc(OC)c1OC returned OX1R antag-1 -16 and OX1R antag-2 15.
Screening Cc1cc(C)n(-c2ccc(C(=O)OCC(=O)Nc3ccc(S(=O)(=O)N4CCOCC4)cc3)cc2)n1 returned OX1R antag-1 -16 and OX1R antag-2 3.
`Cc1ccnc(NC(=O)C2CCCN(S(=O)(=O)c3cnc[nH]3)C2)c1` (stereo not given) gave OX1R antag-1 1 and OX1R antag-2 11.
Screening CC(NC(=O)COC(=O)CCc1ccc(S(=O)(=O)N2CCOCC2)cc1)C1CC2CCC1C2 (stereo not given) returned OX1R antag-1 -10 and OX1R antag-2 11.
For O=[N+]([O-])c1cc(S(=O)(=O)NCCN2CCOCC2)ccc1Cl the results were OX1R antag-1 -1 and OX1R antag-2 15.
O=C1[C@@H]2Cc3c([nH]c4ccccc34)C(c3cccc(Br)c3)N2C(=O)CN1C1CCN(Cc2ccccc2)CC1 (stereo not given in full) was read as OX1R antag-1 6 and OX1R antag-2 -8.
`CO/N=C/c1ccc(Oc2ccc(C)cc2)c([N+](=O)[O-])c1` gave OX1R antag-1 -17 and OX1R antag-2 18.
`C=CCn1c(COc2ccc(Cl)cc2)nnc1SCC(=O)N/N=C/c1ccccc1` gave OX1R antag-1 -44 and OX1R antag-2 9.
For CC(C)C(=O)Nc1ccccc1C(=O)N/N=C/c1ccc([N+](=O)[O-])cc1 the results were OX1R antag-1 -15 and OX1R antag-2 69.
`CC(NC(=O)COC(=O)c1ccco1)c1ccccc1` (stereo not given) gave OX1R antag-1 -6 and OX1R antag-2 19.
`COc1ccc(C(=O)NCCS(=O)(=O)NC2CCCC2)cc1` gave OX1R antag-1 -19 and OX1R antag-2 15.
`COc1ccc(/C=C2\SC(=O)N=C2N)cc1OC` gave OX1R antag-1 -16 and OX1R antag-2 12.
Screening CCOC(=O)N1CCN(S(=O)(=O)c2ccc(OC)c3ccccc23)CC1 returned OX1R antag-1 -36 and OX1R antag-2 -1.
`COC(=O)c1ccccc1NC(=O)Nc1cccc(C)n1` gave OX1R antag-1 -1 and OX1R antag-2 14.
COc1cccc(Nc2nc(-c3ccc(O)cc3)cs2)c1 was read as OX1R antag-1 -15 and OX1R antag-2 13.
For NC(=O)CSc1nc2ccccc2c(=O)n1-c1ccccc1 the results were OX1R antag-1 -2 and OX1R antag-2 2.
Screening COc1ccc(NS(=O)(=O)c2ccc(NC(=S)NC(=O)c3cccc(F)c3)cc2)nn1 returned OX1R antag-1 11 and OX1R antag-2 -4.
CCCN(CC(=O)Nc1ccccc1C)C(=O)c1cccc(S(=O)(=O)N2CCN(c3ccccc3)CC2)c1 was read as OX1R antag-1 -22 and OX1R antag-2 14.
`C=CCOCCN1C(=O)C2C3C=CC(C2C1=O)C1C2C(=O)N(CCOCC=C)C(=O)C2C31` (stereo not given) gave OX1R antag-1 5 and OX1R antag-2 -2.
`COC(=O)c1cccc(N(C(=O)CNC(=O)c2ccco2)C(C(=O)NC2CCCC2)c2ccco2)c1` (stereo not given) gave OX1R antag-1 -30 and OX1R antag-2 17.
C/C(CC(=O)Nc1ccc(C)c(Cl)c1)=N\NC(=O)Cc1cccs1 was read as OX1R antag-1 -13 and OX1R antag-2 16.
Cc1ccc(NCc2cccnc2)cc1 was read as OX1R antag-1 -23 and OX1R antag-2 12.
`CC(=O)Nc1nc(CC(=O)c2ccccc2)cs1` gave OX1R antag-1 -11 and OX1R antag-2 5.
For Cc1ccc(S(=O)(=O)N2c3ccccc3CC2C)cc1 (stereo not given) the results were OX1R antag-1 -23 and OX1R antag-2 22.
